High-throughput results: PubChem, Broad Institute
Vaccinia stage: Vaccinia orthopox stage-specific inhibition | Vaccinia-infected cells, mCherry/Venus stage reporter fluorescence; active compounds read low; some inactives read as strong as hits | activity change (mCherry), % (test concentration not listed) | actives 0.01% (n = 89,000) | AID 1053133;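 active = mCherry past -33% and 40 or more points under the early reporter, replicates agreeing; inconclusive = past -33% without that gap or agreement; tested in A549 cells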;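 also: scaled between vehicle wells and reference inhibitor wells; 23 nL library stock went into each well; one replicate is shown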
Vaccinia stage Venus: also measured in Vaccinia stage; calls as there; activity change (Venus), %; measured here: Venus reporter, other viral stage;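 negative = less Venus signal; first of two replicates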
Starred values were filed as active, the others as inactive; ? = inconclusive; . = not tested or not shown. The list is partial; the hit share may differ from the screen's.

1. C[C@@H]1CCCCO[C@@H](CN(C)CC2CC2)[C@H](C)CN([C@H](C)CO)C(=O)c2cc(NC(=O)CCC(F)(F)F)ccc2O1
2. O=C(Cc1ccccn1)N[C@H]1CC[C@@H](CCn2cc(-c3ccc(F)cc3)nn2)O[C@H]1CO
3. C[C@H](CO)N1C[C@H](C)[C@H](CN(C)Cc2ccc(C(=O)O)cc2)OCCCC[C@H](C)Oc2ccc(NS(=O)(=O)c3ccc(F)cc3)cc2C1=O
4. CO[C@H]1CN(C)C(=O)c2cc(NC(=O)C3CCCC3)ccc2OC[C@H](C)N(C)C[C@@H]1C
5. O=C(C[C@H]1CC[C@H]2[C@@H](COC[C@H](O)CN2C(=O)C2CCOCC2)O1)NCc1ccncc1
6. C[C@@H]1CN([C@@H](C)CO)C(=O)c2cc(NS(C)(=O)=O)ccc2O[C@@H](C)CCCCO[C@@H]1CN(C)S(=O)(=O)c1ccccc1
assay / compound | 1 | 2 | 3 | 4 | 5 | 6
Vaccinia stage Venus | -1 | -8 | 10 | -2 | 15 | 14
Vaccinia stage | -5 | -1 | 43 | 4 | 14 | 32

7. O=C(C[C@@H]1C=C[C@@H](NC(=O)Nc2cccc(F)c2)[C@@H](CO)O1)NCC1CC1
8. CNC[C@@H]1Oc2c(NC(=O)c3ccncc3)cccc2C(=O)N([C@@H](C)CO)C[C@H]1C
9. C[C@H](CO)N1C[C@H](C)[C@@H](CN(C)S(=O)(=O)c2ccc(F)cc2)OCCCC[C@H](C)Oc2ccc(NC(=O)Nc3ccc(C(F)(F)F)cc3)cc2C1=O
10. O=C(C[C@H]1C=C[C@H](NS(=O)(=O)c2ccc(F)cc2)[C@@H](CO)O1)NC1CCCCC1
11. CNC(=O)C[C@H]1CC[C@@H]2[C@H](COc3ccc(NC(=O)Nc4ccc(Cl)cc4)cc3C(=O)N2C)O1
12. CCNC(=O)[C@@H]1[C@@H](CO)[C@@H]2Cn3c(ccc(-c4ccccc4)c3=O)[C@@H]2N1C(=O)C1CCC1
assay / compound | 7 | 8 | 9 | 10 | 11 | 12
Vaccinia stage Venus | 1 | -1 | 23 | 8 | 8 | 16
Vaccinia stage | -4 | 0 | 9 | 8 | 14 | 17

13. C[C@@H]1CCCCO[C@H](CN(C)C(=O)Nc2cccc3ccccc23)[C@H](C)CN([C@H](C)CO)C(=O)c2cc(NC(=O)Cc3ccccc3)ccc2O1
14. O=S(=O)(c1ccc(F)cc1)N1CCCCN2[C@@H](CO)[C@@H](c3ccc(-c4ccccc4F)cc3)[C@@H]2C1
15. O=C(NCC1CC1)[C@@H]1[C@@H](CO)[C@@H]2Cn3c(cccc3=O)[C@H]1N2C(=O)c1ccccc1
16. COc1ccc([Si](C)(C)[C@@H]2[C@@H](CCO)O[C@]3(C(=O)N(Cc4ccc(N5CCCCC5=O)cc4)c4ccccc43)[C@H]2C)cc1
17. CCCN1C[C@@H](C)[C@H](OC)CN(C)C(=O)c2cc(NC(=O)c3cccc(F)c3)ccc2OC[C@@H]1C
18. COc1ccc(-c2ccc([C@@H]3[C@H](CN(C)S(C)(=O)=O)N[C@@H]3CO)cc2)cc1
assay / compound | 13 | 14 | 15 | 16 | 17 | 18
Vaccinia stage Venus | -9 | . | -4 | . | -9 | 2
Vaccinia stage | -14 | ? | 1 | ? | 2 | 7

19. CC(C)NC(=O)Nc1ccc2c(c1)CC(=O)N([C@@H](C)CO)C[C@@H](C)[C@@H](CN(C)C(=O)Nc1ccc3c(c1)OCO3)O2
20. CC1C=NC(S(=O)(=O)N2CC[C@H]3[C@@H](CO)N(C)c4ccc(-c5ccccc5)cc4[C@H]32)=N1 (stereo partly drawn)
21. O=S(=O)(c1ccc(-c2ccccc2)cc1)N1CCN(Cc2cccc(OCCO)c2)CC1
22. O=C(C[C@@H]1C[C@H]2c3cc(NC(=O)Nc4ccc(C(F)(F)F)cc4)ccc3O[C@H]2[C@H](CO)O1)NCc1ccc(Cl)cc1
23. C[C@@H]1CCCCO[C@@H](CN(C)S(=O)(=O)c2cn(C)cn2)[C@@H](C)CN([C@@H](C)CO)C(=O)c2cc(NS(=O)(=O)c3cn(C)cn3)ccc2O1
24. COCC(=O)N1C[C@@H](C)[C@@H](OC)CN(C)C(=O)c2cc(NC(=O)c3ccccc3)ccc2OC[C@@H]1C
assay / compound | 19 | 20 | 21 | 22 | 23 | 24
Vaccinia stage Venus | 8 | 1 | . | . | 5 | 7
Vaccinia stage | 7 | 11 | ? | ? | 15 | 16

25. C[C@@H]1CN([C@@H](C)CO)S(=O)(=O)c2ccc(C#Cc3ccccn3)cc2O[C@@H]1CN(C)C
26. CN(C)C(=O)C[C@H]1C[C@H]2c3cc(NC(=O)Nc4ccc(F)cc4)ccc3O[C@H]2[C@H](CO)O1
27. Cc1ccc(S(=O)(=O)Nc2ccc3c(c2)C(=O)N([C@H](C)CO)C[C@@H](C)[C@@H](CN(C)S(=O)(=O)c2c(C)noc2C)O3)cc1
28. Cn1cnc(S(=O)(=O)N[C@H]2CC[C@H](CC(=O)NCC3CCCCC3)O[C@@H]2CO)c1
29. CCCNC(=O)[C@@H]1[C@@H](CO)[C@@H]2Cn3c(ccc(-c4ccccc4OC)c3=O)[C@@H]2N1C(=O)CC
30. CN1c2ccc(-c3ccccc3F)cc2[C@H]2[C@H](CCN2C(=O)NC2CCCCC2)[C@H]1CO
assay / compound | 25 | 26 | 27 | 28 | 29 | 30
Vaccinia stage Venus | 4 | 10 | 5 | 5 | 0 | -19
Vaccinia stage | 8 | 5 | -3 | 14 | 7 | -27

31. CNC[C@@H]1Oc2ccc(NC(=O)c3ccncc3)cc2CC(=O)N([C@@H](C)CO)C[C@H]1C
32. CC=Cc1ccc2n(c1=O)C[C@@H]1[C@@H](CO)[C@H](C(=O)N3CCc4ccccc4C3)[C@H]2N1CCC (mixture of isomers)
33. C[C@@H]1CCCCO[C@H](CN(C)S(=O)(=O)c2cccs2)[C@@H](C)CN([C@@H](C)CO)C(=O)c2cc(NS(=O)(=O)c3ccc(Cl)cc3)ccc2O1
34. Cc1noc(C)c1S(=O)(=O)Nc1ccc2c(c1)C(=O)N([C@@H](C)CO)C[C@@H](C)[C@@H](CN(C)S(=O)(=O)c1ccccc1)O2
35. CCC(=O)N1[C@@H]2c3ccc(-c4ccccc4)c(=O)n3C[C@H]1[C@H](CO)[C@H]2C(=O)N1CCc2ccccc2C1
36. C[C@@H]1CN([C@@H](C)CO)C(=O)Cc2cc(NS(=O)(=O)c3cn(C)cn3)ccc2O[C@@H]1CN(C)CC1CC1
assay / compound | 31 | 32 | 33 | 34 | 35 | 36
Vaccinia stage Venus | 6 | 7 | -24 | -16 | 9 | 8
Vaccinia stage | 15 | 5 | -29 | -7 | 9 | 9

37. COc1ccc(CN(C)C[C@H]2Oc3c(NC(=O)Nc4ccc(F)cc4)cccc3C(=O)N([C@@H](C)CO)C[C@@H]2C)cc1
38. O=C(C[C@@H]1CC[C@H]2[C@@H](COC[C@H](O)CN2Cc2ccccc2)O1)N1CCOCC1
39. C[C@@H]1CCCCO[C@@H](CN(C)Cc2ccc(C(=O)O)cc2)[C@H](C)CN([C@H](C)CO)C(=O)c2cc(NC(=O)CCCN(C)C)ccc2O1
40. CCNC(=O)C[C@@H]1CC[C@H]2[C@H](COc3ccc(NC(=O)Cc4cccs4)cc3C(=O)N2C)O1
41. COCC#Cc1cnc2c(c1)C(=O)N([C@H](C)CO)C[C@@H](C)[C@H](CN(C)C(=O)c1cccc(F)c1)O2
42. COc1cccc(C(=O)Nc2ccc3c(c2)C(=O)N(C)C[C@@H](OC)[C@@H](C)CN(C(C)=O)[C@H](C)CO3)c1
assay / compound | 37 | 38 | 39 | 40 | 41 | 42
Vaccinia stage Venus | 0 | 7 | -1 | 12 | 1 | 0
Vaccinia stage | -5 | 9 | 8 | 15 | 7 | -8

43. COc1ccc(NC(=O)Nc2ccc3c(c2)CC(=O)N([C@@H](C)CO)C[C@H](C)[C@H](CN(C)CC2CC2)O3)cc1
44. CNC[C@@H]1OCCCC[C@H](C)Oc2ccc(NS(=O)(=O)c3ccc(Cl)cc3)cc2C(=O)N([C@@H](C)CO)C[C@@H]1C
45. CCCNC(=O)Nc1ccc2c(c1)OC[C@H](C)N(Cc1ccncc1)C[C@@H](C)[C@@H](OC)CN(C)C2=O
46. COc1ccc(-c2ccccc2[C@@H]2[C@@H](CO)N(C(=O)NC(C)C)[C@H]2C#N)cc1
47. C[C@@H]1CN([C@@H](C)CO)C(=O)c2cc(NC(=O)Nc3ccccc3)ccc2O[C@@H]1CN(C)Cc1ccncc1
48. O=C(C1CCOCC1)N1CC(=O)N2[C@@H](CO)[C@H](c3ccc(C#CC4CC4)cc3)[C@@H]2C1
assay / compound | 43 | 44 | 45 | 46 | 47 | 48
Vaccinia stage Venus | -10 | 1 | 2 | 0 | 3 | 1
Vaccinia stage | -11 | -15 | 7 | 4 | 6 | 2

Four records drawn at random from those above:
48. O=C(C1CCOCC1)N1CC(=O)N2[C@@H](CO)[C@H](c3ccc(C#CC4CC4)cc3)[C@@H]2C1
43. COc1ccc(NC(=O)Nc2ccc3c(c2)CC(=O)N([C@@H](C)CO)C[C@H](C)[C@H](CN(C)CC2CC2)O3)cc1
47. C[C@@H]1CN([C@@H](C)CO)C(=O)c2cc(NC(=O)Nc3ccccc3)ccc2O[C@@H]1CN(C)Cc1ccncc1
46. COc1ccc(-c2ccccc2[C@@H]2[C@@H](CO)N(C(=O)NC(C)C)[C@H]2C#N)cc1
assay / compound | 48 | 43 | 47 | 46
Vaccinia stage Venus | 1 | -10 | 3 | 0
Vaccinia stage | 2 | -11 | 6 | 4

(further entries)
49. COCC#Cc1ccc([C@@H]2[C@H](CO)N3C(=O)CN(C(=O)C4CCCCC4)C[C@@H]23)cc1
50. C[C@@H]1CN([C@H](C)CO)C(=O)c2cc(NC(=O)Nc3ccc4c(c3)OCO4)ccc2O[C@H]1CN(C)Cc1ccc(-c2ccccc2)cc1
51. COCc1cn(CC[C@@H]2CC[C@H](NC(=O)Nc3ccc(F)cc3)[C@H](CO)O2)nn1
52. CN(C)CC(=O)N1[C@H](C#N)[C@@H](c2ccc(C#CC3CCCCC3)cc2)[C@H]1CO
53. C[C@@H]1CCCCO[C@@H](CN(C)Cc2ccncc2)[C@H](C)CN([C@H](C)CO)C(=O)c2cc(NS(=O)(=O)c3cccs3)ccc2O1
54. O=C(C[C@@H]1CC[C@@H](NS(=O)(=O)c2ccc(F)cc2)[C@H](CO)O1)N1CCC(Cc2ccccc2)CC1
assay / compound | 49 | 50 | 51 | 52 | 53 | 54
Vaccinia stage Venus | 7 | -21 | 2 | -6 | 6 | .
Vaccinia stage | 5 | -31 | 6 | -21 | 6 | ?

55. O=C(C[C@H]1C[C@H]2c3cc(NC(=O)Nc4ccccc4)ccc3O[C@H]2[C@H](CO)O1)NCc1ccccc1
56. CC(C)NC(=O)Nc1ccc2c(c1)C(=O)N([C@@H](C)CO)C[C@@H](C)[C@@H](CN(C)Cc1ccncc1)O2
57. O=C(N[C@H]1C=C[C@@H](CC(=O)N2CCCCC2)O[C@H]1CO)c1ccccn1
58. Cc1ccc(-c2ccc3c(c2)O[C@H](CN(C)C(=O)Nc2ccccc2)[C@@H](C)CN([C@H](C)CO)S3(=O)=O)cc1
59. CC(=O)N1[C@H](CN(C)C(=O)c2ccccc2F)[C@@H](c2ccccc2)[C@@H]1CO
60. COCC(=O)Nc1ccc2c(c1)C(=O)N(C)[C@H]1CC[C@@H](CC(=O)NCC3CCCCC3)O[C@@H]1CO2
assay / compound | 55 | 56 | 57 | 58 | 59 | 60
Vaccinia stage Venus | -19 | 4 | 10 | . | 15 | 13
Vaccinia stage | -9 | 4 | -10 | ? | 26 | 9

61. CC(C)CC#Cc1ccc2c(c1)O[C@@H](CN(C)Cc1ccc(F)cc1)[C@@H](C)CN([C@@H](C)CO)S2(=O)=O
62. C[C@@H]1CCCCO[C@H](CN(C)S(=O)(=O)c2ccc(Cl)cc2)[C@H](C)CN([C@H](C)CO)C(=O)c2cc(NC(=O)C3CCCCC3)ccc2O1
63. O=C(c1ccccc1F)N1C[C@H]2[C@@H](c3ccccc31)[C@H](CO)N2C(=O)c1cccnc1
64. CCCNC(=O)N(C)C[C@@H]1Oc2cc(C#Cc3ccccn3)ccc2S(=O)(=O)N([C@H](C)CO)C[C@@H]1C
65. COc1ccc(S(=O)(=O)N[C@H]2C=C[C@@H](CC(=O)NCc3ccccc3F)O[C@H]2CO)cc1
66. C[C@@H]1CN([C@H](C)CO)C(=O)c2cc(-c3ccc(F)cc3)cnc2O[C@H]1CN(C)C(=O)CN(C)C
assay / compound | 61 | 62 | 63 | 64 | 65 | 66
Vaccinia stage Venus | -14 | -5 | -24 | 3 | 9 | 6
Vaccinia stage | -7 | -21 | -23 | 15 | 6 | 15

67. C[C@@H]1CN([C@@H](C)CO)C(=O)c2cc(C#Cc3cccnc3)cnc2O[C@H]1CN(C)S(=O)(=O)c1ccccc1F
68. COc1ccc2c3c(n(C)c2c1)[C@@H](CO)N(C(=O)Nc1ccccc1F)CC31CCN(C(C)=O)CC1
69. O=C(C[C@@H]1CC[C@@H](NC(=O)C2CCOCC2)[C@H](CO)O1)Nc1nccs1
70. O=C(C[C@H]1C=C[C@@H](NC(=O)CN2CCOCC2)[C@@H](CO)O1)NCCc1ccccc1
71. Cc1cc(C(=O)Nc2cccc3c2O[C@@H](CN(C)S(=O)(=O)c2ccccc2)[C@H](C)CN([C@H](C)CO)C3=O)n(C)n1
72. COc1ccccc1-c1ccc2c(c1)O[C@H](CN(C)S(=O)(=O)c1ccccc1)[C@H](C)CN([C@@H](C)CO)S2(=O)=O
73. COc1ccc(S(=O)(=O)N(C)C[C@H]2OCCCC[C@@H](C)Oc3ccc(NC(=O)CCC(F)(F)F)cc3C(=O)N([C@H](C)CO)C[C@H]2C)cc1
74. C[C@H]1CN([C@@H](C)CO)C(=O)CCCn2nncc2CO[C@H]1CN(C)C(=O)Nc1ccc(N2CCN(C)CC2)cc1
75. COc1cccc(-c2ccc3c(c2)[C@@H]2[C@@H](CCN2C(=O)c2ccc(F)cc2)[C@H](CO)N3)c1
assay / compound | 67 | 68 | 69 | 70 | 71 | 72 | 73 | 74 | 75
Vaccinia stage Venus | -7 | 0 | 0 | 8 | -6 | . | . | 1 | .
Vaccinia stage | -15 | 8 | 0 | 7 | -6 | ? | ? | 7 | ?
